Yeast UUG start = yeast start codon fidelity modulation; actives 0.13% (n = 350,000); S. cerevisiae UUG-firefly luciferase reporter, luminescence/redox ratio; activity score, % at 18.7 µM; AID 602363;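 active = replicate mean at a twofold rise or more, about +100% in these data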;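 note: firefly luciferase made from a UUG start codon reports start codon fidelity; reporter light over untreated wells divided by growth signal over untreated wells; some hits fall short of that in this replicate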
eIF4H FP inh = inhibitors of RNA binding by human eIF4H; inhibition, % at 35 µM; eIF4H fluorescence polarization binding assay; Q15056; actives 0.94% (n = 290,000);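 active = 50% or more with normal probe brightness, or confirmed in later tests; about a fifth of its hits are not listed in these tables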;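 note: calls also rest on retests at 20 µM and on dose response follow-up; 0% = protein and probe with vehicle and 100% = probe without protein; strong numbers were not always called active; many hits fall short of the cut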
MT1-MMP act inh = blocks activation of human MT1-MMP | actives 0.061% (n = 360,000) | P50281 | HT1080 RFP-PRO-GFP cells, GFP/RFP ratio fluorescence, overnight; percent of plate control window, DMSO zero | AID 651647 | GFP/RFP ratio change, % at 20 µM;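 active = GFP/RFP ratio change of at least 30% with cell ATP level not reduced by more than half and red fluorescence within 50% of control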; note: strong numbers were not always called active
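Compound: 20 µM single dose, 1% DMSO / System: HT1080 RFP-PRO-GFP cells / Controls: DMSO and RFP-L50D-GFP cell wells / Read-out basis: GFP/RFP fluorescence ratio / Schedule: overnight compound exposure at 37 °C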
HIV Env fusion = blocks HIV Env-driven cell-cell fusion | HeLa-JRFL Env/CEM21 cell fusion, luciferase | AID 651610 | actives 1.1% (n = 360,000) | inhibition, % at 12.3 µM;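 active = mean replicate inhibition score of at least 50 and every replicate individually at or above 50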;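 note: 0% = plate neutral controls and 100% = maraviroc near 300 nM; one replicate is shown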
Rce1 inhib = blocks yeast Ras-converting enzyme. Q03530. yeast membranes, quenched prenylated peptide cleavage fluorescence. calls only. actives 0.27% (n = 290,000). AID 2563;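 active = fall in fluorescence gain of 50% or more versus controls, with final raw signal at or below 3038400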;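 note: plate controls were neutral control wells for no effect and wells lacking membranes for full effect; tested at 10 µM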
CSC inhib = blocks cancer stem cells; AID 2717; actives 1.1% (n = 300,000); cancer stem cell-like cells viability, luminescence; inhibition, % at 7.5 µM;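 active = mean at 75% or more and at least half the replicates too; tested in HMLE shEcad cells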;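 note: 0% = median of negative and 100% = median of positive control wells; the first replicate is given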
PABP polyA inh = PABP-poly(A) binding inhibition; inhibition, % at 35 µM; PABP-poly(A) RNA binding, fluorescence polarization; P11940; actives 1% (n = 290,000);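 active = 50% or more with normal probe brightness, or confirmed in later tests; about a fifth of its hits are not listed in these tables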;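 note: calls also rest on retests at 20 µM and on dose response follow-up; controls were probe without protein and protein plus probe with vehicle; some compounds called inactive have numbers as strong as hits; many hits fall short of the cut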
Target sequence (P11940 whole entry, looked up): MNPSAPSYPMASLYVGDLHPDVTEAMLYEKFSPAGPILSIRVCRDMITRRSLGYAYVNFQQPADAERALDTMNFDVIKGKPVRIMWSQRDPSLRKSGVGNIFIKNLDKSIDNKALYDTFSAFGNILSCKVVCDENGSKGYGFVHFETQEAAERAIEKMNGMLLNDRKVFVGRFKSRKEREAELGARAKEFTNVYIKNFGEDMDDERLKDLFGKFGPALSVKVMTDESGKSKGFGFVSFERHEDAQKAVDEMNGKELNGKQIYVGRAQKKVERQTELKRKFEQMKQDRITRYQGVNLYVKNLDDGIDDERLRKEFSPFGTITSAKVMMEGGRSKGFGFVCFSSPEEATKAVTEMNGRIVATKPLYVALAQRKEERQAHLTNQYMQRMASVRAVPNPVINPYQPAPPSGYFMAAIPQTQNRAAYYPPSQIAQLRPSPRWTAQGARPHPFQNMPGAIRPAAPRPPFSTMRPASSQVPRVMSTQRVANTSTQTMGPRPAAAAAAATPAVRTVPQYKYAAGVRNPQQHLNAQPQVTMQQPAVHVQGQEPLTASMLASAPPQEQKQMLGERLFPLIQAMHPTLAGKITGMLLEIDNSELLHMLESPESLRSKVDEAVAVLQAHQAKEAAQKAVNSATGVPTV
MT1-MMP act inh RFP = recorded beside MT1-MMP act inh, whose call it bears; RFP signal change, %; measured here: RFP expression control read;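 0 = vehicle wells; hits needed this value within 50% of zero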
* hit, by the source's call; i = inactive; · = no result given; + = active, no number; & = joins results of further samples; [ ] = dose if it differs, or a comment.

item | mol | Yeast UUG start | eIF4H FP inh | MT1-MMP act inh | MT1-MMP act inh RFP | HIV Env fusion | Rce1 inhib | CSC inhib | PABP polyA inh
1 | CCOc1ccc(-c2cnc3n2CCC3)cc1 | · | -9 | 4 | 8 | · | i | 0 | 14
2 | O=C(O)c1cc(S(=O)(=O)Nc2ccccc2C(=O)O)ccc1O | -11 | 1 | -1 | 9 | · | i | 5 | 14
3 | O=C(Nc1ccn(Cc2ccccc2F)n1)c1ccc(COc2cccc(Br)c2)cc1 | -11 | -3 | 1 | -16 | · | i | 48 | 6
4 | O=c1c([N+](=O)[O-])c(NC2CCCCC2)c2ccccc2n1-c1ccccc1 | -14 | -2 | -2 | 0 | · | i | 9 | -1
5 | Fc1ccc(-c2nc(-c3cnccn3)no2)c(Cl)c1 | -40 | 2 | -1 | 1 | -13 | · | 1 | -13
6 | CCOc1ccccc1OCC(=O)Nc1cc2c(cc1C(=O)O)OCCCO2 | -11 | -14 | -3 | -9 | -7 | · | -7 | 13
7 | Cc1ccc(Sc2ncnc3onc(C)c23)cc1 | -17 | -8 | -9 | -8 | · | i | 4 | -2
8 | CCN(CC)S(=O)(=O)c1cccc(C(=O)N[C@H](C(=O)OCC(=O)NC(=O)NC)C(C)C)c1 | -22 | -4 | 0 | 1 | -18 | i | -10 | 0
9 | CCCC(C(=O)Nc1ccc(S(=O)(=O)N2CCOCC2)cc1)c1ccccc1 (configuration not stated) | 1 | · | -9 | -5 | -11 | · | -3 | ·
10 | COc1ccc(S(=O)(=O)N2CCN(C(=O)c3cnc(C)cn3)CC2)cc1 | -11 | -6 | 1 | 3 | · | i | -9 | 0
11 | COc1ccc(-c2nc3ccccc3c(=O)n2CCN2CCOCC2)cc1 | -1 | -6 | 2 | 7 | · | i | · | -16
12 | Cc1cc(C(F)(F)F)nn1CC(=O)NCC1CCCO1 (configuration not stated) | -6 | 2 | -1 | 1 | -20 | i | -7 | 4
13 | CCOc1ccc(/C(O)=C2/C(=O)C(=O)N(CCCN3CCOCC3)C2c2ccc(C)cc2)cc1C (configuration not stated) | 2 | 0 | 0 | 1 | 10 | i | 19 | 8
14 | CCOC(=O)CNNC(=O)Nc1ccc(Cl)c(Cl)c1 | -6 | -3 | 4 | 4 | 8 | i | · | -3
15 | Cc1ccccc1-c1nc(CN2CCC(C(=O)NCc3cccnc3)CC2)c(C)o1 | -28 | -2 | 16 | 4 | -37 | i | · | -2
16 | CC1(C(=O)NCc2cccs2)Cc2c(-c3ccc4c(c3)OCO4)ccnc2O1 (configuration not stated) | 24 | · | 6 | -6 | -308 | · | · | ·
17 | Cc1ccc(Nc2nnns2)cc1C | · | -3 | · | · | -352 | i | 1 | 3
18 | O=C1NC[C@H](c2ccccc2)N(CCC23CC4CC(CC(C4)C2)C3)C1=O | -24 | · | 10 | 2 | 11 | i | -21 | ·
19 | S=C(NCc1cccnc1)Nc1ccc(Oc2ccccc2)cc1 | · | 2 | 5 | -13 | 31 | i | 2 | 7
20 | COc1cc(NS(=O)(=O)c2ccc(NC(=O)NC3CCCCC3)cc2)nc(OC)n1 | -14 | -5 | -2 | 0 | -70 | i | 8 | 4
21 | COc1ccc(CNS(=O)(=O)NCc2ccccc2)cc1OC | -9 | 4 | 3 | 1 | -2 | · | -6 | 6
22 | O=C(O)C1CCCN1C1=NS(=O)(=O)c2ccccc21 (configuration not stated) | -21 | 1 | 2 | 6 | 11 | i | -9 | -8
23 | Cc1onc(-c2c(Cl)cccc2Cl)c1C(=O)NC1CCCCC1 | -14 | 2 | 1 | -3 | 8 | i | · | 7
24 | COc1ccc(C(=O)Nn2c(SCc3cccc([N+](=O)[O-])c3)nc3ccccc3c2=O)cc1 | -36 | 6 | 0 | -1 | · | i | 7 | -5
25 | COCCN=C1Sc2nc3cc(C)c(C)cc3cc2CN1Cc1cccs1 | -28 | -11 | 1 | -3 | -2 | i | 20 | 6
26 | Cc1ccc(S(=O)(=O)NC(=O)Nc2ccc(N(C)C)cc2)cc1 | -36 | 0 | 29 | 19 | -111 | i | -4 | 7
27 | CCOC(=O)CN(c1ccccc1)S(=O)(=O)c1ccc(F)cc1 | -13 | 2 | 0 | 3 | 2 | i | -12 | -3
28 | COc1ccc(Cl)cc1N(CC(=O)N1CCC(C)CC1)S(C)(=O)=O | -12 | -1 | 5 | 4 | -21 | i | -19 | 5
29 | CCN(CC)CCn1c(NCc2ccco2)nc2ccccc21 | -5 | 8 | 3 | -3 | · | i | -8 | 1
30 | CC1(C)OC(=O)C(=CNC(Cc2c[nH]c3ccccc23)C(=O)O)C(=O)O1 (configuration not stated) | -8 | -2 | 2 | 2 | -3 | i | -5 | -4
31 | O=C(NCc1cccs1)Nc1cccc(Cl)c1 | -3 | · | 2 | -4 | · | i | -11 | ·
32 | CN(C)CC(C)(C)CNC(=S)NCc1ccc2c(c1)OCO2 | · | 5 | 6 | 5 | -14 | + | -11 | 0
33 | O=C(Nc1cc(S(=O)(=O)N2CCOCC2)ccc1N1CCCCC1)c1ccc(Cl)cc1 | -7 | · | -12 | -10 | 11 | · | · | ·
34 | C#CCOCCOCCOCCNc1nc(N2CCN(C(=O)[C@H](CCCN=C(N)N)n3cc(C(N)[C@@H](C)CC)nn3)CC2)nc(N2CCN(C(=O)[C@H](CC(N)=O)n3cc([C@@H](N)CC(N)=O)nn3)CC2)n1 (some centres not stated) | 81 | · | 0 | 4 | 17 | · | · | ·
35 | CCn1c(COc2ccc3c(c2)OCO3)nnc1SCC(=O)c1ccc(Cl)cc1 | 4 | -2 | 2 | -8 | 21 | i | 8 | -12
36 | COc1cc(C2C3=C(CC(C)(C)CC3=O)Nc3ccccc3N2C(C)=O)cc(OC)c1OC (configuration not stated) | -3 | 5 | -3 | 6 | -9 | i | 3 | 5
37 | O=C(c1cccc(S(=O)(=O)N2CCOCC2)c1)N1CCN(S(=O)(=O)c2cccs2)CC1 | · | -5 | 1 | 1 | 5 | i | · | 9
38 | O=C1CCC(CCC(=O)N2CCCC(C(=O)c3ccc4c5c(cccc35)CC4)C2)=NN1 (configuration not stated) | · | -3 | 5 | -4 | 38 | i | -7 | -1
39 | O=C(COC(=O)c1ccccc1F)NC1CCCC1 | 2 | -3 | -1 | 2 | 19 | i | -16 | 6
40 | CCN1C(=O)N[C@@H](c2ccco2)C(C(C)=O)=C1C | -11 | · | 4 | 4 | -13 | i | 19 | ·
41 | Cc1c(C(=O)NCc2ccccc2)oc2c1C(=O)CCC2 | -20 | 1 | 0 | 1 | · | i | · | 8
42 | CCn1c(=O)cc(SCC(=O)Nc2ccc(Cl)cc2)c2ccccc21 | -4 | 0 | 4 | 0 | -4 | i | -4 | -7
43 | CCN(CC)C(=O)CSc1nnc(-c2cccnc2)n1Cc1ccccc1 | 4 | -6 | 1 | 2 | · | i | 7 | -4
44 | CCC(=O)N1CC2(CC(c3cccc(NC(=O)COc4ccc(Cl)cc4)c3)=NO2)C[C@@H]1C(N)=O (some centres not stated) | · | 2 | · | · | · | i | · | 0
45 | Clc1ccc(CSc2ccc(-c3ccco3)nn2)cc1 | · | 19 | 0 | -3 | -10 | i | · | 4
46 | O=C1CC(c2ccccc2)CN1C(=O)c1cccc([N+](=O)[O-])c1 (configuration not stated) | -19 | 0 | -2 | 3 | 15 | i | 7 | 1
47 | Cc1sc2ncn(CC(=O)Nc3ccccc3F)c(=O)c2c1-c1ccccc1 | -12 | -8 | 1 | -3 | -22 | i | -3 | 4
48 | CCCCC1CCC(C(=O)N(CCOC)c2c(N)n(CC(C)C)c(=O)[nH]c2=O)CC1 (configuration not stated) | 3 | · | -4 | -4 | -5 | · | -7 | ·
49 | Cc1ccc(NC(=S)N(CCN(C)C)Cc2cc3cc(C)ccc3[nH]c2=O)cc1 | -15 | -2 | -1 | 0 | 2 | i | 0 | -6
50 | O=C(COC(=O)c1cc2ccccc2cc1O)NC(=O)NCc1ccco1 | · | 5 | -3 | 1 | 4 | i | -6 | -11
51 | Nc1ccc2nc(COc3ccccc3)[nH]c2c1 | -7 | 8 | 5 | 0 | -12 | i | 8 | 2
52 | O=C(c1cc(=O)c2cc(Cl)ccc2o1)N1CCN(Cc2ccccc2)CC1 | -6 | 8 | 3 | 0 | 29 | i | -6 | 0
53 | COc1ccc(C(CCN2CCN(c3ccccc3)CC2)c2c(OC)cc(OC)c3c(-c4ccccc4)cc(=O)oc23)cc1 (configuration not stated) | -16 | -8 | 5 | -2 | 3 | i | 9 | -3
54 | CCOc1cc(NC(=S)NCCCN2CCOCC2)c(OCC)cc1NC(=O)c1cccs1 | -20 | -6 | -1 | 1 | 0 | i | 5 | -13
55 | COc1ccc([C@@H]2OC2(C(N)=O)C(N)=O)cc1 | · | 0 | 1 | -2 | 17 | i | -14 | -4
56 | Nc1cc(=O)[nH]c(SCC(=O)Nc2cccc([N+](=O)[O-])c2)n1 | -1 | 0 | 1 | 2 | -5 | i | 1 | 2
57 | C[C@H]1CN([C@@H](C)CO)C(=O)CCCn2nncc2CO[C@H]1CN(C)C(=O)CCC(F)(F)F | -5&-6&-9 | · | -3 | 4 | 5[16.7 µM] | · | · | ·
58 | FC(F)Oc1ccc(NC(=S)NNc2ccnc3cc(Cl)ccc23)cc1 | -10 | -8 | 1 | -9 | 15 | i | -15 | -10
59 | CCOc1cc2[nH]c(=S)n(CCCOC)c(=O)c2cc1OCC | -23 | -2 | 4 | -2 | -11 | i | -8 | -9
60 | COc1ccccc1NC(=O)c1ccccc1NC(=O)c1ccccn1 | -17 | · | 1 | 1 | -37 | · | · | ·

3 records picked at random from those above:
item | mol | Yeast UUG start | eIF4H FP inh | MT1-MMP act inh | MT1-MMP act inh RFP | HIV Env fusion | Rce1 inhib | CSC inhib | PABP polyA inh
49 | Cc1ccc(NC(=S)N(CCN(C)C)Cc2cc3cc(C)ccc3[nH]c2=O)cc1 | -15 | -2 | -1 | 0 | 2 | i | 0 | -6
37 | O=C(c1cccc(S(=O)(=O)N2CCOCC2)c1)N1CCN(S(=O)(=O)c2cccs2)CC1 | · | -5 | 1 | 1 | 5 | i | · | 9
59 | CCOc1cc2[nH]c(=S)n(CCCOC)c(=O)c2cc1OCC | -23 | -2 | 4 | -2 | -11 | i | -8 | -9

Compound profiles (already shown). Values in the order: Yeast UUG start	eIF4H FP inh	MT1-MMP act inh	MT1-MMP act inh RFP	HIV Env fusion	Rce1 inhib	CSC inhib	PABP polyA inh
Record of CCN1C(=O)N[C@@H](c2ccco2)C(C(C)=O)=C1C → -11	·	4	4	-13	i	19	·
Record of O=C(COC(=O)c1cc2ccccc2cc1O)NC(=O)NCc1ccco1 → ·	5	-3	1	4	i	-6	-11
Record of CCCCC1CCC(C(=O)N(CCOC)c2c(N)n(CC(C)C)c(=O)[nH]c2=O)CC1 (configuration not stated) → 3	·	-4	-4	-5	·	-7	·
Record of O=C(COC(=O)c1ccccc1F)NC1CCCC1 → 2	-3	-1	2	19	i	-16	6

Next section.
item | mol | Yeast UUG start | eIF4H FP inh | MT1-MMP act inh | MT1-MMP act inh RFP | HIV Env fusion | Rce1 inhib | CSC inhib | PABP polyA inh
61 | c1ccc2c(CCN3CCNC[C@H]3Cc3cccc4ccccc34)cccc2c1 | -6 | · | 4 | 5 | 12 | · | 9 | ·
62 | CCOc1ccc(-c2cc(C(=O)N/N=C(\C)c3cccnc3)c3ccccc3n2)c(OCC)c1 | -8 | -16 | 5 | 6 | -7 | i | -5 | -9
63 | COc1ccc(C(=O)Nn2cnc3scc(-c4cccs4)c3c2=O)c(O)c1 | 6 | · | -3 | 1 | -116 | i | 1 | ·
64 | O=C(Nc1ccccc1)c1ccc(CN2CCC(Cc3ccccc3)CC2)cc1 | -11 | · | -1 | -23 | · | i | 1 | ·
65 | CC(C)NC(=O)C1(C)CCN1C(=O)C1(c2ccccc2)CC1 (configuration not stated) | -17 | · | 4 | 8 | 9 | · | · | ·
66 | O=C(CN(c1ccc(F)cc1)S(=O)(=O)c1ccc2c(c1)OCCO2)Nc1ccccc1 | -10 | -8 | -1 | -2 | 1 | i | -8 | -3

Screening results: PubChem BioAssay, several laboratories
